MenB inh: M. tuberculosis MenB inhibitors, primary screen, biochemical, absorbance; 1,4-dihydroxy-2-naphthoyl-CoA synthase (Mycobacterium tuberculosis (strain ATCC 25618 / …; MenB enzyme assay, absorbance read-out; some hits fall short of the stated cut; inhibition, %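 (about 12 µg/mL by stock and volumes)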; 100,000 compounds, 0.43% hits;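 active means mean of two replicates above 30%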;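 further: 0% = no compound and 100% = wells with inactive enzyme; the first replicate is given; strong numbers were not always called active; inactives centre near -10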
Target sequence (P9WNP5 whole entry, looked up): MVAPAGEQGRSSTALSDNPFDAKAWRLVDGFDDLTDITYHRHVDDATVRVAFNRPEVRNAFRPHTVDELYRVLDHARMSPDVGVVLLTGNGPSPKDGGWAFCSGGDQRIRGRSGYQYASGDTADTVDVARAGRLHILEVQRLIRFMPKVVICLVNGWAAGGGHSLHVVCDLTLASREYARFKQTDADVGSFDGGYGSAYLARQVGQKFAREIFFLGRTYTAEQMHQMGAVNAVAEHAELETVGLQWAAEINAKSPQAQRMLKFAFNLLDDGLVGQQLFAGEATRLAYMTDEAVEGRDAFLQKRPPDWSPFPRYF
PV pol inh: poliovirus RdRp elongation inhibitors, primary screen, biochemical, fluorescence polarization, total intensity; Genome polyprotein (Poliovirus type 1 (strain Mahoney)), P03300; poliovirus polymerase elongation; stronger effect = lower value; AID 588519, 2011; % elongation, % (compound at 16.7 µg/mL); 150,000 compounds, 0.66% hits; in the data active means % elongation below about 90%; further: some results filed as inactive read as strong as hits
Target sequence (P03300 1749-2209 limits assumed): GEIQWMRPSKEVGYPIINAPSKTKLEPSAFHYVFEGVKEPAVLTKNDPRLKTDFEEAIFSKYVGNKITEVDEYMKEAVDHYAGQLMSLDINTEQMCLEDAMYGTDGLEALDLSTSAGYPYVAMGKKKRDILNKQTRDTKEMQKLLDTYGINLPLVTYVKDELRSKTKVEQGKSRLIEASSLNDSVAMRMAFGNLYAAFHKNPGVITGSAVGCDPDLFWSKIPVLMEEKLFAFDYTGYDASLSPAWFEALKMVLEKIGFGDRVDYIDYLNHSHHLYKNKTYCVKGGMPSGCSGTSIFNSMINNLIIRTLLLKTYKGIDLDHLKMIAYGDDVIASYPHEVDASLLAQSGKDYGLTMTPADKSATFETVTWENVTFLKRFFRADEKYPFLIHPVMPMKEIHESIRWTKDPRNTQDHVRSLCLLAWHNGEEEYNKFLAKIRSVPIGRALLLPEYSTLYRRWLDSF
Mtb MbtI inh: MbtI salicylate synthase inhibitors, primary screen, biochemical, fluorescence intensity; P9WFX0; AID 493033, 2011; 100,000 compounds, 0.89% hits; inhibition, %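 (about 17 µg/mL by stock and volumes)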; purified MbtI enzyme, fluorescence intensity read-out;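 active means above 50% in both replicates, above 80% if mildly self-fluorescent; inactive means the rest, strongly fluorescent compounds included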;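 further: 0% = mean of negative and 100% = mean of positive controls; one replicate is shown; some compounds called inactive have numbers as strong as hits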
PV pol inh intensity: also measured in PV pol inh; calls as there; % elongation; measured here: total intensity read-out; formula for this scale not given here;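 total fluorescence in place of polarization; lower means less elongation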
* marks the source's active call; other numbers are inactive results; i = inactive; . = no result given; & = joins results of further samples.

SMILES	MenB inh	PV pol inh	PV pol inh intensity	Mtb MbtI inh
CC(C)c1nnc(NC(=O)/C=C/c2ccc3c(c2)OCO3)s1	-8.5	102.0	104.0	27.6
O=c1c2ccccc2nc(-c2cccs2)n1NCc1ccccc1F	-30.0	100.0	96.0	3.1
C=CCc1c(C)nc(SCC(C)C)[nH]c1=O	-36.9	100.0	98.0	37.9
CC1(C)C(=O)C2(CCCCC2)C(=O)OC1c1ccc(Br)o1 (stereo unspecified)	12.1	100.0	101.0	-3.7
Nc1nc2nccnc2c(=O)[nH]1	-3.5	98.0	105.0	78.1
COc1nsnc1NS(=O)(=O)c1ccc(-n2c(-c3ccc4ccccc4n3)n[nH]c2=S)cc1	-2.8	100.0	100.0	23.8
S=C(NCCN1CCOCC1)NC1CCCc2ccccc21 (stereo unspecified)	-11.3	105.0	102.0	.
CCCN(Cc1nc2cc(Cl)ccc2c(=O)[nH]1)C(=O)c1ccc(S(=O)(=O)N2CCCC2)cc1	1.0	103.0	97.0	15.8
CCOc1ccc(C2C(C(=O)c3ccc(C)o3)=C(O)C(=O)N2Cc2cccnc2)cc1OC (stereo unspecified)	-18.4	102.0	103.0	4.2
Cc1ccccc1-c1nc(CS(=O)(=O)CC(=O)N2CCCC2)c(C)o1	-11.8	101.0	102.0	-3.2
Cc1ccc(Cn2c(=O)n(-c3ccc(C)c(C)c3)c(=O)c3oc4ccccc4c32)cc1	-41.7	102.0	96.0	0.8
COc1ccc(C(CC(=O)NCCc2ccco2)n2cccc2)cc1 (stereo unspecified)	-1.0	99.0	103.0	-24.5
CCn1c(COc2ccc(Cl)c(C)c2)nc2cc(S(=O)(=O)N(C)C)ccc21	-8.9	103.0	108.0	2.8
O=C(CC1Sc2ccccc2NC1=O)Nc1ccc(F)cc1 (stereo unspecified)	-32.4	101.0	102.0	-10.9
C=CCn1cc(C(=O)c2cc(Cl)ccc2O)cc(C#N)c1=O	-18.0	106.0	112.0	2.8
C=CC[C@H]1CC(C)=C[C@H](CC=C)N1C(C)=O	-5.4	103.0	102.0	-2.9
c1cncc(-c2noc(-c3ccc4c(c3)OCO4)n2)c1	-4.8	99.0	108.0	.
N#C/C(=C\c1ccc(N2CCCCC2)o1)C(N)=O	-249.0	83.0	192.0	6.8
Clc1ccc(-c2csc(-c3cccc(-n4cccc4)c3)n2)cc1	-0.2	105.0	106.0	26.4
CC(C)c1ccc(S(=O)(=O)/N=C2/C=C(Sc3ncn[nH]3)C(=O)c3ccccc32)cc1	7.8	66.0*	65.0*	88.3
Cc1ccc(-c2nnc(NC(=O)c3ccc(S(=O)(=O)N4CCCC4)cc3)o2)c(C)c1	-3.5	98.0	106.0	0.5
O=C1NCCN1CCNC(=S)Nc1ccc(OC(F)(F)F)cc1	-4.7	108.0	114.0	-7.2
CCCN1CCC(NC(=O)Nc2ccccc2C(=O)OC)CC1	-21.6	100.0	103.0	i
O=C(O)c1ccc(N=Cc2cccnc2)cc1	-16.2	104.0	105.0	.
Cc1ccc(S(=O)(=O)CCSC2=CC(=O)CC(C)(C)S2)cc1	-26.4	101.0	108.0	-3.0
CN1CCN(NC(=O)CSc2ccc(Cl)cc2Cl)CC1	-3.5	99.0	103.0	2.0
NC(=O)c1ccc(OC2CSC2)cc1	-8.9	105.0	106.0	.
Cn1nc(-c2ccc(Cl)cc2)c2cc(C(=O)NCC3CCCO3)sc21 (stereo unspecified)	-22.3	100.0	100.0	117.0
CC(C)N(C(=O)Cn1c(SCC(=O)N2CCOCC2)nc2ccccc21)C(C)C	3.4	101.0	101.0	3.3
N#CC1=C(N)OC2=C(C(=O)CCC2)C12C(=O)N(CC(N)=O)c1ccccc12 (stereo unspecified)	-17.4	103.0	103.0	1.8
COC(=O)C1CCN(C(=O)c2cc(S(N)(=O)=O)ccc2OC)CC1	-30.4	98.0	94.0	5.1
N#CCCn1cc(C(=O)COc2ccccc2C#N)c2ccccc21	-23.9	101.0	108.0	-18.1
COc1ccc2nc(NC(=O)C3CCC3)sc2c1	0.7	100.0	104.0	-3.3
Cc1nsc(N)c1C(=O)O	-13.5	104.0	95.0	5.2
O=C(CSc1ccccc1C(=O)O)c1ccccc1	-56.7	103.0	101.0	-4.8
COc1ccc(S(=O)(=O)NC(CC(=O)O)C(C)C)cc1 (stereo unspecified)	-1.1	98.0	96.0	3.5
CN(Cc1cccs1)C(=O)CSc1nnc(-c2ccccc2)n1-c1ccccc1	1.5	102.0	108.0	-8.2
C=CCn1c(-c2ccccc2Cl)nn(CCC#N)c1=S	-0.6	99.0	90.0	-9.5
CC1(C)CC(=O)C(C=NCCN2CCN(C(=O)Cc3ccccc3)CC2)=C(O)C1	8.7	103.0	103.0	14.7
O=C(c1ccccc1)c1ccc(C(=O)O)c(C(=O)O)c1	46.0*	103.0	99.0	-0.9
O=C(NN=C1CCCC1)c1ccccc1O	-118.9	95.0	102.0	i
O=C(Nc1ccccc1)Nc1ccccc1C(=O)NCC1CC1	-21.2	104.0	108.0	-51.2
COCCn1c(C)nnc1SCC1CCCO1 (stereo unspecified)	0.0	101.0	104.0	-2.0
CN(C)C(=O)CSc1ccc(-c2ccc(F)cc2)nn1	-8.1	100.0	101.0	-5.8
N#Cc1cn(CC(=O)N2CCc3ccccc3C2)c2ccccc12	-1.0	101.0	99.0	.
O=C(COc1ccccn1)N1CCN(c2ccccc2)CC1	.	100.0	101.0	-3.9
O=C(c1ccco1)c1cn(CC(=O)N2CCc3ccccc32)c2ccccc12	-25.6	101.0	104.0	44.4
O=C(O)C12C3CCC4C5C3C1C5(C(=O)O)C42 (stereo unspecified)	6.5	103.0	108.0	-5.9
O=S(=O)(NC1CCCc2ccccc21)c1ccc2c(c1)OCCO2 (stereo unspecified)	-2.8	.	.	2.6
Cc1nnc(C)c2c(C)n(-c3ccc4c(c3)OCO4)c(C)c12	-29.6	105.0	102.0	-4.7
Cc1csc(=N)n1CC(=O)N1CCc2ccccc21	8.8	100.0	104.0	-1.5
O=C1c2ccccc2C(=O)N1CSc1nnc(-c2cccs2)o1	-0.2	100.0	108.0	-19.8
CNc1nc(=S)[nH]c2ccccc12	1.4	99.0	102.0	16.1
CC(=O)Oc1cc2c(C(=O)NCCCN3CCOCC3)c(C)oc2c2ccccc12	-8.6	105.0	105.0	11.6
Cc1oc(-c2ccccc2)nc1C(=O)N(C)CC(=O)Nc1ccc(N2CCOCC2)cc1	-31.8	105.0	97.0	-12.8
N#Cc1c(Nc2ccccc2Cl)s[nH]c1=O	-14.1	102.0	100.0	67.4
COc1cccc(CN2CCc3nc(N4CCOCC4)ncc3C2)c1	3.5	102.0	102.0	-56.2
O=C(O)CCC(=O)Nc1ccc(S(=O)(=O)Nc2nccs2)cc1	-6.9&-1.2	101.0&100.0	98.0&101.0	-6.8&-15.7
O=C(CCCc1ccccc1)N/N=C/c1ccc(O)cc1O	-156.2	103.0	103.0	-3.0
O=c1cnc2ccccc2n1Cc1cc(=O)n2ccsc2n1	-9.4	99.0	103.0	6.2
The list goes on:
SMILES	MenB inh	PV pol inh	PV pol inh intensity	Mtb MbtI inh
CC(C)(C)NC(=O)Cn1cnc2c(cnn2-c2ccccc2)c1=O	-12.8	102.0	104.0	-12.5
Cc1ccccc1Nc1nc(N)nc(COC(=O)Cc2c[nH]c3ccccc23)n1	-1.7	108.0	112.0	-9.1
CCn1c(=S)ccc2ccccc21	-64.8	100.0	96.0	94.4
Cc1nc2nc(N)[nH]c(=O)c2nc1C	-4.9	102.0	101.0	115.6
C=CCNC(=O)COc1ccc2c(C)cc(=O)oc2c1	4.7	98.0	98.0	135.9
Oc1ccccc1C1C=CCC1 (stereo unspecified)	.	104.0	110.0	-11.2
O=S(=O)(Cc1ccccc1)N1CCCC(c2nc(-c3cccs3)no2)C1 (stereo unspecified)	-23.5	101.0	103.0	-11.9
CC(C)CNc1ncnc2sc3c(c12)CCCC3	-101.1	109.0	104.0	.
Cc1cc(C(=O)O)c(C#N)c(N)n1	-6.2	98.0	97.0	.
N#C/C(=C\c1ccccc1)C(=O)O	-26.9	95.0	94.0	40.2
CSC(=NC1CCCCC1)Nc1cc(-c2ccccc2)[nH]n1	-20.4	102.0	103.0	3.1
CC(O)(C(=O)NN=C1CCCC1)c1ccccc1 (stereo unspecified)	-11.2	100.0	104.0	-10.1
CCN(CC)S(=O)(=O)c1ccc(N2CCCC2=O)cc1Cl	-6.1	100.0	103.0	-8.6
Cc1cccc(C)c1NC(=O)CSc1ncccc1C(=O)O	-4.2	104.0	107.0	-8.4
O=S1(=O)c2cccc3cccc(c23)N1Cc1cccc(Br)c1	-55.1	103.0	101.0	116.1
Cc1ccc(S(C)(=O)=O)cc1C(=O)NC1CCC(C)CC1 (stereo unspecified)	9.0	.	.	20.7
Cc1cc(C)c(-c2ccn(C(=O)c3cc(-c4ccccc4)oc3C)n2)[nH]1	-16.4	100.0	100.0	-35.9
O=C(NCCCN1CCN(c2ccc(F)cc2)CC1)C1c2ccccc2C(=O)N2CCc3ccccc3C12 (stereo unspecified)	4.1	100.0	103.0	-5.8
O=C(NCCc1c[nH]c2ccccc12)C1Cc2ccccc2CN1C(=O)c1ccco1 (stereo unspecified)	-22.7	101.0	93.0	-3.6
C=CCn1c(O)c(CN2CCN(Cc3ccccc3)CC2)c(C)c(C#N)c1=O	10.8	99.0	102.0	9.9
CCCCCCN1C(=O)NC(c2ccccc2)C1=O (stereo unspecified)	-9.2	104.0	105.0	12.8
Cn1c(N2CCN(S(=O)(=O)c3ccc(Cl)cc3)CC2)nc2ccccc21	1.3	103.0	103.0	-4.2
CNC(=O)Cn1cc(S(=O)(=O)Cc2ccccc2)c2ccccc21	-7.0	103.0	104.0	3.9
N#CCOC(=O)c1cccnc1SCC#N	-31.6	106.0	127.0	-8.7
NC1=NN(c2ccccc2)CC1	6.6	102.0	99.0	.
O=C(c1cnoc1)c1ccccc1O	4.6	83.0*	84.0*	19.7
CNS(=O)(=O)c1cc(O)c2c(S(=O)(=O)NC)cccc2c1	-40.3	103.0	104.0	-5.8
O=C(CSc1c2c(nc3ccccc13)CCCC2)NC1CCCCC1	-2.7	103.0	98.0	-4.0
O=C1CN(C(=O)CSc2nnc(Cc3cccs3)n2CCc2ccccc2)c2ccccc2N1	-30.7	98.0	90.0	10.7
N#CCSc1nc2cc(Cl)ccc2c(=O)n1Cc1ccccc1	6.2	102.0	108.0	-17.2
CN(Cc1ccccc1)C(=O)COC(=O)c1ccc(S(=O)(=O)N(C)C)cc1	-24.0	104.0	112.0	-0.2
CCN(CC)S(=O)(=O)c1ccc2oc(=S)n(CN3CCCCC3)c2c1	5.5	100.0	95.0	16.3
COc1ccc(C(=O)COC(=O)CN2C(=O)C3CC=CCC3C2=O)cc1 (stereo unspecified)	6.6	101.0	96.0	3.2
S=c1[nH]nc(C2(c3ccccc3)CCCC2)o1	-9.6	91.0	98.0	.
CN(C)S(=O)(=O)c1ccc(C(=O)OCC(=O)C(C)(C)C)cc1	-18.0	104.0	99.0	0.3
CC1Sc2ccc(C(=O)N(C)Cc3cccnc3)cc2NC1=O (stereo unspecified)	-27.0	102.0	110.0	-6.6

A stretch from the list above:
SMILES	MenB inh	PV pol inh	PV pol inh intensity	Mtb MbtI inh
Cc1cc(C)c(-c2ccn(C(=O)c3cc(-c4ccccc4)oc3C)n2)[nH]1	-16.4	100.0	100.0	-35.9
O=C(NCCCN1CCN(c2ccc(F)cc2)CC1)C1c2ccccc2C(=O)N2CCc3ccccc3C12 (stereo unspecified)	4.1	100.0	103.0	-5.8
O=C(NCCc1c[nH]c2ccccc12)C1Cc2ccccc2CN1C(=O)c1ccco1 (stereo unspecified)	-22.7	101.0	93.0	-3.6
C=CCn1c(O)c(CN2CCN(Cc3ccccc3)CC2)c(C)c(C#N)c1=O	10.8	99.0	102.0	9.9
CCCCCCN1C(=O)NC(c2ccccc2)C1=O (stereo unspecified)	-9.2	104.0	105.0	12.8
Cn1c(N2CCN(S(=O)(=O)c3ccc(Cl)cc3)CC2)nc2ccccc21	1.3	103.0	103.0	-4.2
CNC(=O)Cn1cc(S(=O)(=O)Cc2ccccc2)c2ccccc21	-7.0	103.0	104.0	3.9
N#CCOC(=O)c1cccnc1SCC#N	-31.6	106.0	127.0	-8.7
NC1=NN(c2ccccc2)CC1	6.6	102.0	99.0	.
O=C(c1cnoc1)c1ccccc1O	4.6	83.0*	84.0*	19.7
CNS(=O)(=O)c1cc(O)c2c(S(=O)(=O)NC)cccc2c1	-40.3	103.0	104.0	-5.8
O=C(CSc1c2c(nc3ccccc13)CCCC2)NC1CCCCC1	-2.7	103.0	98.0	-4.0
O=C1CN(C(=O)CSc2nnc(Cc3cccs3)n2CCc2ccccc2)c2ccccc2N1	-30.7	98.0	90.0	10.7
N#CCSc1nc2cc(Cl)ccc2c(=O)n1Cc1ccccc1	6.2	102.0	108.0	-17.2
CN(Cc1ccccc1)C(=O)COC(=O)c1ccc(S(=O)(=O)N(C)C)cc1	-24.0	104.0	112.0	-0.2
CCN(CC)S(=O)(=O)c1ccc2oc(=S)n(CN3CCCCC3)c2c1	5.5	100.0	95.0	16.3
COc1ccc(C(=O)COC(=O)CN2C(=O)C3CC=CCC3C2=O)cc1 (stereo unspecified)	6.6	101.0	96.0	3.2
S=c1[nH]nc(C2(c3ccccc3)CCCC2)o1	-9.6	91.0	98.0	.

Screening data from PubChem BioAssay.
